From PubChem
PrP 5UTR inh = inhibition of PrP 5' UTR reporter expression | cell-based PrP 5' UTR mRNA reporter, plate reader | inhibition, % (test concentration not listed) | actives 0.35% (n = 340,000);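 active = every replicate at 50% or more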;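 note: 0 = median of the neutral control wells; tested in H4 reporter cells; numbers are from one replicate; inactives centre near -14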
Mtb hypoxia rep = Mtb hypoxia fluorescent reporter inhibition; M. tuberculosis hypoxia-regulated fluorescent reporter, fluorescence; fluorescence inhibition, % (test concentration not listed); actives 0.1% (n = 300,000); AID 1159583;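 active = 35 to 45% if threefold the growth effect, above 45% if 1.5-fold the growth effect; inactive = the rest, general growth blockers included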;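 note: wells of about 50 µL received 100 nL stock; 0% = vehicle wells and 100% = reference inhibitor wells; whole bacteria with a GFP reporter of the hypoxia response; strong numbers were not always called active; many hits fall short of the cut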
Sa ugtP lethal = compounds lethal to S. aureus RN4220 ugtP deletion mutant. OD600 growth, 16 h; some inactives read as strong as hits. growth inhibition, % (concentration not given with the values). actives 0.54% (n = 330,000);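 active = z-score under -3 and OD600 up to 0.15 on both plates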;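 note: plate controls were untreated wells for no effect and antibiotic for full effect; wells of about 80 µL received 100 nL stock; the first replicate is given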
Bead autofluor = flagged as autofluorescent in microsphere protease counterscreen | compound autofluorescence counterscreen, microsphere flow cytometry; active compounds read high | fluorescence intensity (test concentration not listed) | actives 3.1% (n = 360,000);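 active = at least 3 SD above the mean of all compounds, about 16000 in these data; inconclusive = too few beads counted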;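 note: 100 nL of 1 mM stock went into each well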
BJeLR viability = kills HRASV12-expressing BJeLR cells. BJeLR (HRASV12) viability, CellTiter-Glo ATP luminescence, 48 h; reference of the scale not given here. inhibition, % (concentration not given with the values). actives 0.17% (n = 300,000);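 active = replicate mean above 50%; inconclusive = above 50% but judged a plate artefact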;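 note: 50 nL library stock added to about 25 µL; numbers are from one replicate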
Sa RN4220 lethal = S. aureus RN4220 growth inhibition. actives 0.33% (n = 330,000). OD600, 16 h. inhibition, % (test concentration not listed);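 active = z-score of -3 or lower and OD600 up to 0.18 on both plates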;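 note: plate controls were untreated cells for no effect and reference antibiotic for full effect; stock transfer was 100 nL into about 80 µL; one replicate is shown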
Mtb hypoxia rep growth = recorded beside Mtb hypoxia rep, whose call it bears; growth inhibition, %; measured here: M. tuberculosis growth (absorbance);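 0% = vehicle and 100% = reference antibiotic; read after six days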
Active calls of the source: *; ? = inconclusive; . = no result given.

SMILES	PrP 5UTR inh	Mtb hypoxia rep	Mtb hypoxia rep growth	Sa ugtP lethal	Bead autofluor	BJeLR viability	Sa RN4220 lethal
CN1CCN(c2ccc([N+](=O)[O-])cc2NC(=O)c2ccccc2)CC1	-24	4	2	1	16981*	-14	0.4
CC(=O)c1cccc(NC(=O)N[C@@H](CC(C)C)C(=O)O)c1	-13	3	-2	3	10880	-7	5.8
CCN1CCN(/C=N/c2nc(C)cs2)CC1	-61	.	.	.	10649	16	.
CC(=O)c1cccc(NC(=O)CCn2c(=S)oc3ccccc32)c1	-18	8	-3	-10	2752	-1	0.0
COc1ccc(CC(=O)NC(=S)Nc2ccc(S(N)(=O)=O)cc2)cc1	-2	11	7	7	2464	6	2.1
CC1CCC(C(=O)NC(C(=O)N2CCC3(CC2)OCCO3)C(C)C)CC1 (stereo not given)	-39	-1	12	-7	5574	3	3.0
Clc1ccc(-c2nc3ncccn3c2Cl)cc1	-29	23	18	1	4260	3	2.6
COC(=O)c1ccc(CSc2nnc(CNC(=O)c3ccc(OC)cc3)o2)o1	-20	10	8	2	4270	20	4.0
O=C1CSC(c2ccncc2)N1Cc1ccc(F)cc1 (stereo not given)	-1	4	3	10	3310	-7	1.6
O=C(COC(=O)C1c2ccccc2Oc2ccccc21)Nc1ccc2c(c1)OCO2	-8	9	11	-2	3300	3	2.3
CCOC(=O)c1c(N)sc(C(=O)Nc2ccccc2)c1C	-58	16	10	-3	3574	8	7.7
CCCNC(=O)c1nnsc1Sc1ccc(Cl)cc1	-49	.	.	10	3050	-12	1.5
O=C(CCC1CCCCC1)NCc1ccncc1	-4	6	10	-2	?	6	7.2
O=C(NC(=S)Nc1ccc(S(=O)(=O)Nc2nccs2)cc1)c1ccc(Br)o1	-16	19	21	-2	3435	-2	12
CN(C)S(=O)(=O)c1ccc(Cl)c(NC(=O)CN2CCNC(=O)C2)c1	-2	1	1	7	3127	-24	4.7
COc1ccccc1C(=O)NC(=S)Nc1ccc(Cc2ccncc2)cc1	4	6	-4	-9	3777	8	15
Cc1cc(C)cc(N(C(=O)CNC(=O)c2ccco2)C(C(=O)NC2CCCCC2)c2ccncc2)c1 (stereo not given)	-21	6	1	4	5508	-5	6.7
O=C(COC(=O)Cc1cn2ccsc2n1)NC12CC3CC(CC(C3)C1)C2	-40	8	4	11	4224	0	7.7
Nc1ccccc1C(=O)N=Nc1[nH]c(N)c2ccccc12	-75	-5	0	-5	2551	1	0.0
O=C(Nc1ccccc1[N+](=O)[O-])c1cccc(N2C(=O)CCC2=O)c1	11	2	-1	11	5213	-6	4.4

The final 3 entries of the section before lead into the next.
SMILES	PrP 5UTR inh	Mtb hypoxia rep	Mtb hypoxia rep growth	Sa ugtP lethal	Bead autofluor	BJeLR viability	Sa RN4220 lethal
O=C(COC(=O)Cc1cn2ccsc2n1)NC12CC3CC(CC(C3)C1)C2	-40	8	4	11	4224	0	7.7
Nc1ccccc1C(=O)N=Nc1[nH]c(N)c2ccccc12	-75	-5	0	-5	2551	1	0.0
O=C(Nc1ccccc1[N+](=O)[O-])c1cccc(N2C(=O)CCC2=O)c1	11	2	-1	11	5213	-6	4.4
O=C(O)c1c(C(=O)O)c(-c2ccc(Cl)c(Cl)c2)n2c1CSC2	-14	4	-7	4	3776	0	-6.8
C=CCn1cnnc1SCC(=O)N(C)CC1COc2ccccc2O1 (stereo not given)	-20	7	3	2	4119	.	2.2
CC(=O)Nc1cccc(OCc2ccc(S(=O)(=O)Cc3ccccc3)cc2)c1	-27	14	10	9	10256	3	6.6
Fc1ccc(Cc2nnc(-c3cccs3)o2)cc1	-42	.	.	1	5587	3	1.7
N#Cc1c(-c2ccc(Cl)cc2)c(C#N)c(=O)n(N)c1N	-1	8	0	5	3252	2	7.0
Cn1ncc2c(NCc3cccc(C(F)(F)F)c3)c(C(=O)O)cnc21	.	16	3	1	.	-2	5.9
CO/N=C1\CCCc2c(C(=O)NN)sc(SC)c21	-10	.	.	.	4188	-1	.
CS(=O)(=O)N(CC(=O)NCc1ccco1)c1ccc(Cl)cc1Cl	-4	3	7	4	2025	-5	3.7
CC1CCN(Cc2ccc(-c3nnn(CC(=O)NC4CCCCC4)n3)cc2)CC1	-1	0	2	2	4501	3	-0.6
COc1cnn(-c2ccccc2)c(=O)c1SCc1ccc(Cl)c(Cl)c1	-36	10	5	13	?	9	4.5
Cc1nc(SCC(=O)Nc2c(C)n(C)n(-c3ccccc3)c2=O)[nH]c(=O)c1Cc1ccccc1	10	2	3	-3	10493	1	2.4
CC(C)(C)c1cc(S(=O)(=O)CCc2ccccn2)cc(C(C)(C)C)c1F	-12	3	8	-19	5756	-5	8.7
CC(C)(C)c1ccc(C(=O)NCc2nnc(SCC(=O)NCc3ccco3)o2)cc1	-12	4	5	-6	5743	4	4.0
CC(=O)c1ccc(OCc2cc(C(=O)N3CC[C@@H]4CCCC[C@H]4C3)no2)cc1	-65	7	11	-4	4678	5	5.9
CCn1nc(C)c(CCC(=O)O)c1C	-12	4	2	3	4430	11	2.8
Cc1ccc(S(=O)(=O)N2CCCCC2C(=O)O)cc1 (stereo not given)	-2	0	4	12	3393	-1	8.1
Cc1ccccc1OCC(O)Cn1c(N2CCCCC2)nc2c1c(=O)[nH]c(=O)n2C (stereo not given)	-11	8	-4	-3	5898	-2	3.5
COc1ccc(/C=N\Nc2ncc(F)c(N3CCOCC3)n2)cc1OC	-3	.	.	.	6294	-7	.
Cc1cc(C)c(S(=O)(=O)N2CCCC(C(=O)NCc3cccnc3)C2)c(C)c1 (stereo not given)	-5	2	5	0	5327	-2	0.1
Cc1cc(NC(=O)COC(=O)c2n[nH]c3ccccc23)no1	-27	7	-9	-8	7039	12	0.2

Profiles, looked up by structure.
Results for `O=C(CCC1CCCCC1)NCc1ccncc1` = PrP 5UTR inh = -4; Mtb hypoxia rep = 6; Mtb hypoxia rep growth = 10; Sa ugtP lethal = -2; Bead autofluor = ?; BJeLR viability = 6; Sa RN4220 lethal = 7.2
Results for `Cc1cc(NC(=O)COC(=O)c2n[nH]c3ccccc23)no1` = PrP 5UTR inh = -27; Mtb hypoxia rep = 7; Mtb hypoxia rep growth = -9; Sa ugtP lethal = -8; Bead autofluor = 7039; BJeLR viability = 12; Sa RN4220 lethal = 0.2

The results go on.
SMILES	PrP 5UTR inh	Mtb hypoxia rep	Mtb hypoxia rep growth	Sa ugtP lethal	Bead autofluor	BJeLR viability	Sa RN4220 lethal
CCCN1CCC(=O)N(C(CSc2ccccc2)Cc2ccccc2)CC1 (stereo not given)	.	1	2	4	.	.	6.9
Cc1ccnc2nc(C(=O)OCCOc3ccc(Cl)cc3)nn12	-29	9	8	-1	4220	-1	3.7
O=c1c(-c2ccc(Cl)cc2)[n+]([O-])c2ccccc2n1OCc1ccccn1	-27	3	6	0	5725	-2	4.7
O=[N+]([O-])c1ccc(NCc2ccc(Cl)cc2)c2ccncc12	0	-2	-2	-8	4483	-2	-11
Cc1ccsc1C(=O)N(Cc1nnc(-c2ccccc2Cl)o1)C1CC1	-17	1	12	3	5527	9	2.9
Oc1ccccc1C1CC(c2cccs2)=NC(c2cccc(Br)c2)N1 (stereo not given)	-13	9	13	12	3280	-8	5.6
COc1ccc(N(CC(=O)NCc2ccccc2)S(=O)(=O)c2c(C)noc2C)cc1	1	-3	1	10	?	4	2.7
C/C(=N\N1C(=O)c2ccccc2NC1c1ccccc1)c1ccccc1O (stereo not given)	-31	.	.	.	4373	13	.
Cc1cccc(N2CCN(C(=O)c3ccc4c(c3)CCN4S(C)(=O)=O)CC2)c1C	-12	7	4	-4	4804	-3	1.1
CCc1cc2c(=O)c(-c3ccon3)c(N)oc2cc1OC	-64	12	1	-3	9506	-13	3.0
COc1ccc2[nH]c(CN3CCN(C(C)C)C(CCO)C3)c(C)c2c1 (stereo not given)	-33	6	7	3	2696	10	2.1
CC(C)(C)n1cc(C(=O)c2ccc3ccccc3c2O)cn1	18	4	7	13	3481	-1	-1.3
Cn1c(CSc2ncn[nH]2)nc2ccccc21	-3	5	9	8	2901	-7	2.6
Cc1cc2c3c(c1C)C1(C(=O)N3C(C)(C)CC2C)C(C#N)=C(N)Oc2n[nH]c(C)c21 (stereo not given)	-5	-1	10	-23	8183	-9	9.6
c1csc(-c2ccc(N3CCOCC3)nn2)c1	7	15	1	17	3881	17	5.6
CN(Cc1cccc(F)c1)C(=O)c1ccccc1Sc1ccccc1C#N	7	-4	1	-10	4555	12	0.6
c1ccc(OCCCn2nnc(-c3ccncc3)n2)cc1	-10	15	5	1	8081	1	3.0
CC1(C)CC(=O)C2=C(C1)OC(N)=C(C#N)C2c1ccccc1 (stereo not given)	-22	-1	5	-8	9018	1	7.6
CC(=NOCc1ccc(C#N)cc1)c1ccccc1	.	11	4	7	.	.	5.2
CCn1c(N2CCN(S(=O)(=O)c3ccc(Cl)cc3)CC2)nc2ccccc21	-10	-8	10	1	4261	21	5.0
Cc1c(C)n2c(SCC(=O)N3CCN(c4ccccc4)CC3)nnc2[nH]c1=O	-10	5	6	4	5162	2	5.0
O=C(Nc1ccccc1)[C@@H]1CCCN1S(=O)(=O)c1ccc(Cl)cc1	-11	11	13	10	3698	.	1.5
CCOc1cc(/C=N/O)ccc1OCc1ccc(F)cc1	-21	.	.	.	1989	4	.
O=C(CSc1nc2cc(C(F)(F)F)ccc2n1Cc1ccccc1)NC1CCS(=O)(=O)C1 (stereo not given)	-30	0	7	0	2525	-12	-2.5
N#Cc1nc(-c2cccs2)oc1NCCCN1CCOCC1	-33	5	0	3	11366	-7	0.8
Cc1ccc(NC(=O)CN2C(=O)NC3(CCCC3)C2=O)c(Cl)c1	-23	2	11	3	3723	5	2.8
O=C(Nc1ccc2oc(-c3ccccc3F)nc2c1)c1ccco1	-127	5	-16	7	2378	1	-3.8
Cc1nn2c(-c3ccc(Cl)cc3)ccnc2c1-c1ccccc1	-41	1	-5	9	9440	.	-1.3
CCOC(=O)C1(CC2CC2)CCN(Cc2cc(Cl)c(O)c(OC)c2)CC1	-7	10	3	-1	4704	3	4.3
COc1ccc(-c2noc(CCC(=O)NCC3CCCO3)n2)cc1 (stereo not given)	-28	15	2	5	3933	-5	3.0
Cc1ccc(S(=O)(=O)NCCC(=O)OCc2ccc([N+](=O)[O-])cc2)cc1C	-18	-2	0	-2	3893	-4	3.0
CC(=O)OCC[n+]1c(C)n(-c2ccccc2)c2ccc(Cl)cc21	-17	1	2	7	2616	-5	4.0
Cc1cc(C)cc(NC(=O)CSc2nnc(-c3cc(C)[nH]n3)n2N)c1	-14	3	-1	6	4565	-7	5.3
Cn1c(SCc2cccc(Cl)c2)nc(C(F)(F)F)cc1=O	-8	15	5	9	18749*	8	6.1
NC(=S)NNc1cccc2cccnc12	-16	6	9	15	2886	-2	12
O=C(c1ccco1)N1CCN(Cc2cc(=O)c(OCc3ccccc3Cl)co2)CC1	-33	4	4	5	5016	-7	1.0
Cc1cccc(C)c1NC(=O)Nc1ccccc1-n1ccnc1	-12	5	5	-4	2557	-4	-0.5
COC(=O)c1ccc(C)c(NS(=O)(=O)c2ccc(C)c([N+](=O)[O-])c2)c1	-20	.	.	-5	4621	-13	11
Cc1ccc(C2=NN(C3=NN=C(N)Cc4ncnn43)C(O)(C(F)(F)F)C2)cc1 (stereo not given)	-31	13	4	7	2160	3	0.7
Nc1nc(NCc2ccco2)nc(N2CCCCC2)c1[N+](=O)[O-]	18	17	2	55	2681	-7	59
COc1ccc(S(=O)(=O)N2CCCCC2)cc1NC(=O)CCc1nc2ccccc2c(=O)[nH]1	-4	-1	-1	-2	6582	1	-0.7
Cc1cccc(NC(=O)c2ccc([N+](=O)[O-])o2)n1	-21	11	7	41	3214	-14	1.6
Cc1ccc(COC(=O)c2cccc(S(=O)(=O)N3CCCCC3)c2)cc1	8	0	1	7	6821	.	-2.1
COc1ccc(-c2cc3nc4c(c(=O)n3[nH]2)CCC4)cc1	-49	-16	5	-10	6173	-7	-3.5
C(/C=C/C=C/Nc1ccccc1)=Nc1ccccc1	-22	.	.	.	10758	-5	.
CCOC(=O)c1c(C)nc(-c2ccccc2)nc1NC(=O)CC	-19	.	.	-19	2163	-5	4.9
O=C(Nc1cc(Br)ccc1O)c1cc(-c2ccccc2)on1	-22	4	13	-5	4368	0	5.8
COc1ccccc1OCCC(=O)OCC(=O)NC(C)c1ccccc1 (stereo not given)	-7	6	9	13	2547	4	1.2
